# MT1-MMP act inh = inhibitors of human MT1-MMP activation; P50281; HT1080 RFP-PRO-GFP cells, GFP/RFP ratio fluorescence, overnight; percent of plate control window, DMSO zero; GFP/RFP ratio change, % at 20 µM; 360,000 compounds, 0.061% hits;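 active = GFP/RFP ratio change of at least 30% with cell ATP level not reduced by more than half and red fluorescence within 50% of control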; note: strong numbers were not always called active
#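 Assay system: HT1080 RFP-PRO-GFP cells | Dosing: 20 µM single dose, 1% DMSO | Incubation: Cells overnight before dosing, compound overnight, 37 °C, 5% CO2 | Evaluation: GFP/RFP fluorescence ratio | Control set: DMSO-only wells and HT1080 RFP-L50D-GFP cell wells as references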
# eIF4H FP inh = inhibitors of RNA binding by human eIF4H | inhibition, % at 35 µM | Q15056 | 290,000 compounds, 0.94% hits | eIF4H fluorescence polarization binding assay;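 active = 50% or more with normal probe brightness, or confirmed in later tests; inconclusive = above 50% with abnormal brightness, or retests that disagree; inactive = below 50% or failed in later tests; about a fifth of its hits are not listed in these tables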;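 note: calls also rest on retests at 20 µM and on dose response follow-up; 0% = protein and probe with vehicle and 100% = probe without protein; strong numbers were not always called active; many hits fall short of the cut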
# CSC inhib = blocks cancer stem cells. cancer stem cell-like cells viability, luminescence. 300,000 compounds, 1.1% hits. AID 2717. inhibition, % at 7.5 µM;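 active = mean at 75% or more and at least half the replicates too; inconclusive = mean and replicates disagree; tested in HMLE shEcad cells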;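 note: 0% = median of negative and 100% = median of positive control wells; the first replicate is given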
# Rce1 inhib = yeast Ras-converting enzyme inhibition; Q03530; yeast membranes, quenched prenylated peptide cleavage fluorescence; calls only; 290,000 compounds, 0.27% hits;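 active = fall in fluorescence gain of 50% or more versus controls, with final raw signal at or below 3038400; inconclusive = same 50% fall but final raw signal above 3038400; inactive = fall in fluorescence gain under 50%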;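 note: plate controls were neutral control wells for no effect and wells lacking membranes for full effect; tested at 10 µM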
# HIV Env fusion = inhibitors of HIV Env-mediated cell fusion. HeLa-JRFL Env/CEM21 cell fusion, luciferase. inhibition, % at 12.3 µM. 360,000 compounds, 1.1% hits. AID 651610;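 active = mean replicate inhibition score of at least 50 and every replicate individually at or above 50; inconclusive = only one of the two criteria met; inactive = mean below 50 and not all replicates reaching 50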;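 note: 0% = plate neutral controls and 100% = maraviroc near 300 nM; one replicate is shown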
# Yeast UUG start = alters start codon recognition fidelity in yeast. 350,000 compounds, 0.13% hits. activity score, % at 18.7 µM. S. cerevisiae UUG-firefly luciferase reporter, luminescence/redox ratio;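 active = replicate mean at a twofold rise or more, about +100% in these data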;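 note: firefly luciferase made from a UUG start codon reports start codon fidelity; reporter light over untreated wells divided by growth signal over untreated wells; some hits fall short of that in this replicate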
# PABP polyA inh = PABP-poly(A) binding inhibition. P11940. PABP-poly(A) RNA binding, fluorescence polarization. inhibition, % at 35 µM. 290,000 compounds, 1% hits;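 active = 50% or more with normal probe brightness, or confirmed in later tests; inconclusive = above 50% with abnormal brightness, or retests that disagree; inactive = below 50% or failed in later tests; about a fifth of its hits are not listed in these tables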;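 note: calls also rest on retests at 20 µM and on dose response follow-up; controls were probe without protein and protein plus probe with vehicle; some compounds called inactive have numbers as strong as hits; many hits fall short of the cut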
# Target sequence (P11940 whole entry, looked up): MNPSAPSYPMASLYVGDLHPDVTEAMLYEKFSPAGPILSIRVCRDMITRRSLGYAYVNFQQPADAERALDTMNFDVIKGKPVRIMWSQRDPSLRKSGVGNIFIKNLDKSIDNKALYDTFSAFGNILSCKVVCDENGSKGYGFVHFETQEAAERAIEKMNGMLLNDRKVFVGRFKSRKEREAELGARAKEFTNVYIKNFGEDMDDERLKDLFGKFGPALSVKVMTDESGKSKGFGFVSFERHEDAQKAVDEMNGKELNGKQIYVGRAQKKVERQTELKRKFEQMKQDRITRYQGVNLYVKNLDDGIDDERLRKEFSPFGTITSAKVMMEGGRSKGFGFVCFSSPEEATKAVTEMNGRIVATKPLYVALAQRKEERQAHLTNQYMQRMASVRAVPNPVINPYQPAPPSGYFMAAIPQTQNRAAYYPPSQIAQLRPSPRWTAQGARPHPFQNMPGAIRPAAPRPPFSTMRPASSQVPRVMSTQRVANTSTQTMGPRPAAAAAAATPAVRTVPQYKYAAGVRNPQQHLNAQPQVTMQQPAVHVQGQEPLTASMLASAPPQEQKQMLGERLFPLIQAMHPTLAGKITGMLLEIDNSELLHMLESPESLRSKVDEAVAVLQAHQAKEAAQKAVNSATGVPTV
# eIF4H FP inh retest = also measured in eIF4H FP inh; calls as there; inhibition, %; compound at 20 µM; confirmation average;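 mean of two retest wells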
# PABP polyA inh retest = second read-out of PABP polyA inh, no call of its own (marks repeat the call); inhibition, %; compound at 20 µM; confirmation repeats;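 mean of two retest wells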
# MT1-MMP act inh RFP = also measured in MT1-MMP act inh; calls as there; RFP signal change, %; measured here: RFP expression control read;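 0 = vehicle wells; hits needed this value within 50% of zero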
# * = called active by the depositor; i = inactive; ? = inconclusive; . = no result given; & = joins results of further samples.
SMILES,MT1-MMP act inh,MT1-MMP act inh RFP,eIF4H FP inh,CSC inhib,Rce1 inhib,HIV Env fusion,Yeast UUG start,PABP polyA inh,others
Cc1[nH]n(-c2ncc(-c3ccc(Cl)cc3)s2)c(=O)c1C(c1ccc(Cl)cc1)C(C#N)C#N (stereo not given),7,-2,86,96*,i,.,.,5.9*,eIF4H FP inh retest=42;PABP polyA inh retest=73*
COC(=O)C1=C(C)N(CCc2c[nH]c3ccccc23)C(=O)C1,-3,3,6,-7,i,-2,-7,2,
Cn1nc(C(=O)NNC(=O)c2ccccc2Br)c2ccccc2c1=O,7,4,.,.,.,3,-16,.,
C=CCOc1cccc(C(=O)N2CCC(CCC(=O)NC3CC3)CC2)c1,-6,-2,-17,14,i,2,-16,-11,
COCC(=O)N1CCCc2ccccc21,1,1,-1,-5,i,-20,-12,-15,
CSc1nc(C)nc2c1c(=O)n(C)c(=O)n2C,-7,3,-1,.,i,-6,-7,5,
C#CCOC(=O)C[N+](C)(C)C/C=C/c1ccccc1,2,5,-7,-9,i,8,.,5,
CCCCN(C(=O)c1ccncc1)c1c(N)n(CCC)c(=O)[nH]c1=O,-8,-1,.,-5,.,-3,1,.,
COc1cccc(/C=C/C(=C2/C(=O)N(c3ccccc3)N=C2C)c2ccccc2)c1OC,2,2,1,50,i,2,.,2,
O=C(N1CCOCC1)N1CCN(S(=O)(=O)N2CCOCC2)CC1,-1,7,1,-15,i,.,-8,-6,
Cn1cc(C(=O)N2CCN(c3ccccc3)CC2)c(=O)c2cc(S(=O)(=O)N3CCOCC3)ccc21,-3,-1,-11,-17,i,-6,12,2,
COc1ccc(-c2csc3nc(C)n(-n4cccc4)c(=O)c23)cc1OC,-3,-1,-9,5,.,.,-10,3,
CCN(CC1CCCN(CCc2cccc(F)c2)C1)C(=O)c1ccc(CSC)o1 (stereo not given),-4,2,6,2,i,.,-11,6,
O=C(/C=C/c1ccco1)Nc1cccc2cccnc12,-23,7,?,10,i,-6,.,2,
CCCCC(c1nnnn1CC1CCCO1)N1CCN(Cc2ccccc2)CC1 (stereo not given),0,1,3,-10,i,-72,-7,4,
COC(=O)Cc1ccc(NC(=S)NCC(C)C)cc1,8,6,-3,-5,i,13,.,-1,
CC(C)CC(NC(=O)C(NC(=O)OC(C)(C)C)C(C)C)C(=O)N1CCCC1C(N)=O (stereo not given),6,6,-2,.,i,.,-7,5,
CC1(C)CC(=O)C2=C(C1)NC(SCC(N)=O)=C(C#N)C21CCCCC1,-4,-6,2,9,i,.,-18,14,
Cc1cc(N2O[C@]34C=C[C@]25C[C@@H](O)CC[C@]5(C)C3CC[C@]2(C)[C@@H]([C@H](C)/C=C/[C@H](C)C(C)C)CC[C@H]24)no1 (stereo not given in full),2,0,.,.,.,26,-10,.,
CCOc1ccc2nc(NCCCNS(=O)(=O)c3ccc(C)cc3)c(C#N)cc2c1,-13,-8,-5,-2,i,.,.,-5,
COc1cc2c(cc1OC)C(c1ccccc1)N(C(=O)c1ccccc1)CC2 (stereo not given),-1,-3,-3,.,i,-60,8,4,
O=C(Nc1ccc2c(c1)OCO2)c1cc(-c2ccccc2Cl)on1,2,1,-27,-11,.,-89,-17,9,
Cn1c(=O)c2ccccc2n(CC(=O)NC2CCCC2)c1=O,3,4,-12,-12,i,-4,-16,-4,
O=[N+]([O-])c1ccc(N2CCN(c3ccc(O)cc3)CC2)cn1,-5,-19,-10,.,i,4,.,-11,
CCOC(=O)c1cnc2ccc(Br)cc2c1NCCO,7,-1,-4,-11,i,.,-10,-4,
# Other results follow:
SMILES,MT1-MMP act inh,MT1-MMP act inh RFP,eIF4H FP inh,CSC inhib,Rce1 inhib,HIV Env fusion,Yeast UUG start,PABP polyA inh,others
Cc1ccc(-n2nc(C)c3onc(C)c3c2=O)cc1,-2,0,-4,5,i,0,.,-2,
CC1CCCN(C(=O)COc2ccc(-c3ccccc3)cc2)C1 (stereo not given),-3,-4,-4,4,i,0,3,26,
O=C(O)c1ccc(Nc2cnc3ccccc3n2)cc1,3,6,-2,3,i,-18,.,-14,
CC(C)NC(=O)N(C)C[C@H]1Oc2ccc(NC(=O)Nc3ccccc3)cc2C(=O)N([C@H](C)CO)C[C@@H]1C,5,2,.,-18,.,-34,-25,.,
CN(CC(=O)Nc1ccccc1Sc1ccccc1)Cc1nc2ccccc2c(=O)[nH]1,-2,-6,5,8,i,28,-3,-10,
CCOC(=O)N1CCC(NC(=O)CCc2nc(-c3ccc(C)cc3)no2)CC1,1,-2,-2,9,i,.,18,7,
CCOc1ccc(NC(=O)C2CCCN(S(=O)(=O)c3cnc[nH]3)C2)cc1 (stereo not given),1,0,-7,-2,i,.,-6,1,
CCCNC(=O)N(C)C[C@@H]1Oc2ncc(-c3ccncc3)cc2C(=O)N([C@H](C)CO)C[C@@H]1C,4,6,.,.,.,-23,3&-7&-5,.,
COc1ccccc1C(O)Cc1nc2ccccc2n1C (stereo not given),2,5,-6,-13,i,.,-5,-1,
CCC(C)[C@H](NC(=O)N1CCn2c1nc1ccccc12)C(=O)NCCc1ccc(OC)c(OC)c1 (stereo not given in full),-3,-2,-12,-8,i,5,8,-1,
Cc1ccc(CN2CCSc3ccc(C(=O)NC4CCCC4)cc32)cc1,-3,-3,.,25,i,.,4,.,
CCOC(=O)c1ccc(NC(=S)N(CCCN2CCCC(C)C2)Cc2cccs2)cc1 (stereo not given),1,2,-12,15,i,-2,.,0,
CC(NS(=O)(=O)c1ccccc1)C(=O)Nc1nccs1 (stereo not given),-5,3,.,.,i,-72,-13,.,
CCCCNC(=O)Nc1nnc(-c2ccccc2)o1,1,3,0,-18,i,-111,-12,10,
Cc1ccc(OCC(=O)N/N=C/c2cn[nH]c2-c2ccc(Cl)c(Cl)c2)cc1,-5,-7,6,13,i,.,-8,-2,
Cc1cnc(NC(=O)CSC(=S)N2CCOCC2)s1,-4,2,0,-9,i,0,.,-4,
C[S+](CC[C@H](N)C(=O)O)C[C@H]1O[C@@H](n2cnc3c(N)ncnc32)[C@H](O)[C@@H]1O (stereo not given in full),-4,1,.,-6,.,.,-16,.,
COc1ccc(C2CC(c3ccccc3)=NN2C(=O)CN2CCN(Cc3ccccc3)CC2)cc1 (stereo not given),5,-4,-9,.,i,7,.,5,
NCCc1nnc(SCc2c(F)cccc2Cl)o1,0,2,0,-4,i,.,-2,2,
Oc1ccccc1-c1nc(N2CCN(Cc3ccccc3)CC2)c2ccccc2n1,-7,-6,-1,49,i,-22,-11,-1,
CCN(CC(=O)Nc1ccc2c(c1)OCO2)CC(=O)Nc1ccccc1C(F)(F)F,-1,0,.,.,.,5,1,.,
CCOCCCN1C(=O)CN(C2CCCCCC2)C(=O)C1c1ccc(OC)cc1 (stereo not given),2,0,-1,-1,i,.,.,-1,
CCOC(=O)NC(=O)C(=CNc1ccc(C)cc1)C(=O)NC(=O)OCC,0,4,-3,-5,i,6,.,-5,
O=C(Cn1nc(-c2ccco2)ccc1=O)Nc1ccc(Br)cc1,3,3,-10,25,i,-2,-16,0,
Cc1onc(-c2ccccc2Cl)c1C(=O)Nc1ccc(-c2cn3cccnc3n2)cc1,3,-1,2,.,i,.,.,7,
CCOc1ccc(/C=N/NC(=O)C2CC2)c(OCC)c1,-5,-1,3,-5,i,6,-3,9,
CN(C)C(=O)c1cc(C(=O)c2ccccc2)c[nH]1,1,6,-11,1,i,8,-5,-2,

# As a short view, part of the list above:
SMILES,MT1-MMP act inh,MT1-MMP act inh RFP,eIF4H FP inh,CSC inhib,Rce1 inhib,HIV Env fusion,Yeast UUG start,PABP polyA inh,others
CN(CC(=O)Nc1ccccc1Sc1ccccc1)Cc1nc2ccccc2c(=O)[nH]1,-2,-6,5,8,i,28,-3,-10,
CCOC(=O)N1CCC(NC(=O)CCc2nc(-c3ccc(C)cc3)no2)CC1,1,-2,-2,9,i,.,18,7,
CCOc1ccc(NC(=O)C2CCCN(S(=O)(=O)c3cnc[nH]3)C2)cc1 (stereo not given),1,0,-7,-2,i,.,-6,1,
CCCNC(=O)N(C)C[C@@H]1Oc2ncc(-c3ccncc3)cc2C(=O)N([C@H](C)CO)C[C@@H]1C,4,6,.,.,.,-23,3&-7&-5,.,
COc1ccccc1C(O)Cc1nc2ccccc2n1C (stereo not given),2,5,-6,-13,i,.,-5,-1,
CCC(C)[C@H](NC(=O)N1CCn2c1nc1ccccc12)C(=O)NCCc1ccc(OC)c(OC)c1 (stereo not given in full),-3,-2,-12,-8,i,5,8,-1,
Cc1ccc(CN2CCSc3ccc(C(=O)NC4CCCC4)cc32)cc1,-3,-3,.,25,i,.,4,.,

# Screening data (PubChem)
